CBX7 AlphaScr – blocks human CBX7 binding to H3K27me3 peptide. O95931. AlphaScreen His6-CBX7 / biotin-H3K27me3 peptide binding; stronger effect = lower value. normalised signal (fraction of DMSO) (concentration not given with the values). 66,000 compounds, 1.1% hits. AID 1224903; in the data active = normalised signal below about 0.5;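 also: 100 nL library stock added to about 20 µL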
Target sequence (O95931 whole entry, looked up): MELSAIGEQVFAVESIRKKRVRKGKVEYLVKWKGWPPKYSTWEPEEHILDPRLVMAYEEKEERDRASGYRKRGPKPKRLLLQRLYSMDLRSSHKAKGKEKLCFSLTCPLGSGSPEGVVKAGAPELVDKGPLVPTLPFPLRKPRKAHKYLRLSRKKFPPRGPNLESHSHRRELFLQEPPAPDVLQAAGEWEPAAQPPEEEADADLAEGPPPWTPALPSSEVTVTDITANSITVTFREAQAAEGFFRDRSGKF
CBX7 AlphaScr z-score – further read-out of CBX7 AlphaScr, marked with its call; z-score; measured here: z-score of CBX7 signal; some inactives read as strong as hits; reference of the scale not given here;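 same signal on another scale; lower means less binding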
Numbers without * were called inactive.

Structure	CBX7 AlphaScr	CBX7 AlphaScr z-score
CC(C)CCOc1cccc(OCC(=O)NC2CCS(=O)(=O)C2)c1 (stereo not given)	1.2	1.7
Cc1ccccc1Cc1c(C)nc2c(C(=O)NC3CCCCC3)cnn2c1C	0.86	-4
Cc1ccc2c(c1)C(c1ccccc1)N(C(=O)C1CCCCC1)CC(=O)N2 (stereo not given)	0.95	-0.21
Cc1nc2ccc(S(=O)(=O)N(C)CC(=O)NC3CCCc4ccccc43)cc2s1 (stereo not given)	1.2	0.94
Cc1ccc(-c2cc(C(=O)N(C)Cc3cnn(C)c3C)c3ccccc3n2)cc1C	1	0.42
O=C1CC(c2nc3ccccc3[nH]2)CN1c1ccccc1 (stereo not given)	1.2	2.1
COc1ccccc1-c1csc(NC(=O)c2ccc(S(=O)(=O)N(C)c3ccccc3)cc2)n1	0.97	-1.4
Cc1c(C(=O)Nc2ccccc2F)sc2ncn(CC(=O)N3CCCC(C)C3)c(=O)c12 (stereo not given)	1.1	0.49
COc1cc(C)nc(NC(=O)Nc2ccc(F)cc2)n1	1.1	1.3
Cc1cc(C)cc(OCc2nc(-c3ccncc3)no2)c1	1.1	1.1
COc1ccccc1-c1c(C)nn2c(NCCCN3CCCC3=O)cc(C)nc12	1	0.74
COc1ccc(Cc2nnc(NC(=O)Nc3ccc(Cl)cc3)s2)cc1	1	0.07
O=C(N1CCN(Cc2ccc3c(c2)OCO3)CC1)C1(S(=O)(=O)c2ccc(Cl)cc2)CC1	0.97	-1.3
O=C(O)c1ccc(Nc2nc(-c3ccc(Cl)cc3)nc3ccccc23)cc1	0.69	-3.4
COc1ccc(-c2nc(C(=O)NCCc3ccccc3)c(C)o2)cc1OC	1	0.95
CCOCCCNC(=O)c1cc(Nc2ccccc2CC)nc2ccccc12	1	0.57
CCOc1cccc(C(=O)Nc2nnc(COc3ccc(Cl)cc3)s2)c1	1	0.45
Brc1ccc(OCc2ccccc2)c2ncccc12	1	0.57
Cc1ccc(NC(=O)CCc2c(C)nc3cc(-c4ccccc4)nn3c2C)cc1F	1.1	2.8
COc1ccc(OC)c(NC(=O)c2cccc3c2C(=O)N(Cc2cccnc2)C3)c1	0.98	-0.023
CCOc1ccc(C(=O)NCCc2cc3c(OC)ccc(OC)c3[nH]c2=O)cc1OCC	1	0.82
O=C1c2cnccc2C(Nc2ccc(Br)cc2)N1Cc1ccccc1 (stereo not given)	0.63	-4.7
COc1ccc(Br)cc1S(=O)(=O)NCCc1c(C)[nH]c2ccccc12	0.8	-3
O=c1[nH]c(CN2CCC(Cc3ccccc3)CC2)nc2ccccc12	0.97	-0.31

A different layout for part of the listing above.
Brc1ccc(OCc2ccccc2)c2ncccc12
  CBX7 AlphaScr: 1; CBX7 AlphaScr z-score: 0.57

O=C(O)c1ccc(Nc2nc(-c3ccc(Cl)cc3)nc3ccccc23)cc1
  CBX7 AlphaScr: 0.69; CBX7 AlphaScr z-score: -3.4

COc1ccc(OC)c(NC(=O)c2cccc3c2C(=O)N(Cc2cccnc2)C3)c1
  CBX7 AlphaScr: 0.98; CBX7 AlphaScr z-score: -0.023

(continued)
Structure	CBX7 AlphaScr	CBX7 AlphaScr z-score
CCC1CCCCN1CCCNC(=O)c1ccc2c(c1)N(Cc1ccccc1)CCS2 (stereo not given)	0.76	-0.31
CCOC(=O)N1CCC(NC(=O)c2cc3c(-c4ccc(Cl)cc4)nn(C)c3s2)CC1	1.2	0.89
Cc1ccc(-c2noc(CCC(=O)NC3CC3)n2)cc1	1.1	1.8
Cc1ccc(Oc2nc3ccccc3n3cnnc23)cc1	1.1	2.5
CC(C)c1ccc(NS(=O)(=O)c2cc(Br)cc3c2N(C(=O)C2CC2)CC3)cc1	0.97	-1.4
O=C(CSCc1cnn(-c2ccccc2)c1-n1cccc1)NC1CC1	0.99	-0.62
COc1ccc(-c2nc3ccccc3n2C(C)c2ccccc2)cc1 (stereo not given)	0.96	-0.35
CCOC(=O)c1cc(-c2ccccc2)n(-c2cccc(C(=O)Nc3cccc(C)n3)c2)c1C	0.85	-2.8
O=C(Nc1nc(-c2ccccn2)cs1)c1ccccc1Oc1ccccc1	0.96	-1.5
CN1CCSc2ccc(C(=O)NCc3ccc(F)cc3)cc21	1.1	1
COC(=O)c1ccc2nc(C)cc(Nc3ccc(C(=O)O)cc3)c2c1	1.1	2.6
CCOc1ccc(-n2c(/C=C/c3ccc(F)cc3)nc3cc(OC)c(OC)cc3c2=O)cc1	1	0.39
O=C(NCCc1ccccc1)c1cc2ccccn2n1	1	-0.11
Cc1ccc(C)c2[nH]c(=O)c(CCNC(=O)C3(c4ccc(Cl)cc4)CCCC3)cc12	0.98	-0.57
Cc1ccc(NC(=O)C2=CCN(S(=O)(=O)c3ccc(F)cc3)CC2)cc1	0.95	-0.89
N=c1n(CCN2CCOCC2)c2ccccc2n1CC(O)COc1ccc(Cl)cc1Cl (stereo not given)	0.89	-0.69
COc1ccc(NC(=O)c2cnn(-c3ccccc3)c2C2CCN(C(=O)OC(C)(C)C)CC2)cc1	0.97	-1.2
CC1CCCCC1NC(=O)CN1CCN(Cc2ccc(Cl)cc2)C1=O (stereo not given)	1	0.76
CCc1ccccc1NC1c2ccccc2C(=O)N1c1cccnc1 (stereo not given)	1.1	1.4
Cc1ccc2c(c1)C(c1ccccc1)N(C(=O)c1cccc(Cl)c1)CC(=O)N2 (stereo not given)	1	0.95
COc1ccc2nc(SCCc3ccccc3)nc(C)c2c1	1.7	18
O=C(Cn1ncc2ccsc2c1=O)NCCc1ccccc1	1	0.6
CC(NC(=O)CCc1nc2ccccc2[nH]1)c1ccccc1 (stereo not given)	1.1	2
O=c1[nH]c2ccc(S(=O)(=O)Nc3cccc(C(F)(F)F)c3)cc2[nH]c1=O	0.98	-0.77

The closing 7 entries of the part above come first, to join the parts.
Structure	CBX7 AlphaScr	CBX7 AlphaScr z-score
CC1CCCCC1NC(=O)CN1CCN(Cc2ccc(Cl)cc2)C1=O (stereo not given)	1	0.76
CCc1ccccc1NC1c2ccccc2C(=O)N1c1cccnc1 (stereo not given)	1.1	1.4
Cc1ccc2c(c1)C(c1ccccc1)N(C(=O)c1cccc(Cl)c1)CC(=O)N2 (stereo not given)	1	0.95
COc1ccc2nc(SCCc3ccccc3)nc(C)c2c1	1.7	18
O=C(Cn1ncc2ccsc2c1=O)NCCc1ccccc1	1	0.6
CC(NC(=O)CCc1nc2ccccc2[nH]1)c1ccccc1 (stereo not given)	1.1	2
O=c1[nH]c2ccc(S(=O)(=O)Nc3cccc(C(F)(F)F)c3)cc2[nH]c1=O	0.98	-0.77
CN(CCC#N)C(=O)Cn1nc(Cc2cccnc2)c2ccccc2c1=O	0.96	-1.2
Cc1c(CCNC(=O)CCC(=O)O)c2ccccc2n1Cc1ccccc1	0.93	-0.81
Cc1c(C(=O)Nc2cccc(C(F)(F)F)c2)oc2ccc(S(=O)(=O)N3CCOCC3)cc12	0.93	-0.93
Cc1nn(CC(=O)NCc2ccc(OC(C)C)cc2)c2ccccc12	0.97	-1.2
C=CCNC(=O)c1cnn2c(C)c(Cc3ccccc3)c(C)nc12	1.1	1.5
CCOC(=O)C(C)Oc1ccc2c(C)c(Cc3ccccc3)c(=O)oc2c1 (stereo not given)	1.1	0.95
Cc1cccc(-n2ncc3c(N(CCO)CCO)ncnc32)c1	1.1	1.5
N#CCn1c(=O)n(Cc2ccccc2Cl)c(=O)c2cccnc21	1	0.0075
Cc1oc(-c2ccccc2F)nc1CS(=O)(=O)CC(=O)N1CCC(Cc2ccccc2)CC1	0.53	-12
COc1ccc(CCNC(=O)c2cnn(-c3ccccc3)c2-n2cccc2)cc1OC	1	-0.14
Cc1ccc(NC(=O)C2CCCN(S(=O)(=O)c3c(C)noc3C)C2)cc1 (stereo not given)	1	0.11
CN1CCN(C(=O)c2cc(-c3ccc(O)cc3)on2)CC1	1	1.7
Cc1ccc(-n2nc3c(c2NC(=O)c2c(-c4ccccc4Cl)noc2C)CSC3)cc1	0.99	-0.18
Cc1cc(Cl)cc(Cl)c1OCC(=O)Nc1cccc(-c2nc3ncccc3o2)c1C	0.97	-0.28
O=C(NCC1COc2ccccc2O1)c1n[nH]c(=O)c2ccccc12 (stereo not given)	1	0.23
CN1CCN(CCCNC(=O)CN2N=C(c3ccccc3)CCC2=O)CC1	1.1	1
Cc1nc2cc(-c3cccc(F)c3)nn2c(C)c1CCC(=O)Nc1ccc(F)cc1F	1	0.82
COc1cccc(-c2nc(CSCC(=O)NCCN3CCCC3)c(C)o2)c1	1.1	1.2
Cc1ccc(NC(=O)N2CCC(N(C)C(C)C)CC2)cc1C	0.77	-2.5
CCn1cc(C(=O)N(C)c2cccc(Cl)c2)c2cc(OC)c(OC)cc2c1=O	1.1	1.1
Cc1c(C(=O)N2CCCCCC2)sc2ncn(CC(=O)N3CC(C)CC(C)C3)c(=O)c12 (stereo not given)	1	-0.067
CCN(CC)c1cc(C)c2cc(NC(=O)Cc3ccc(C)cc3)ccc2n1	1.3	3.2
COc1ccc(CNC(=O)C2CCN(C(=O)N(C)C)CC2)c(OC)c1	0.99	-0.15
CCc1cccc(NC(=O)CSc2nc3ccncc3[nH]2)c1	0.94	-0.79
O=C(COc1ccc(Br)cc1)Nc1ncc(Cc2ccccc2)s1	0.91	-0.98
Cc1cccc(CSc2nc3c(c(=O)[nH]2)CCCC3)c1	0.88	-1.8
CCN(CC)CCNC(=O)c1ccc2c(c1)N(Cc1ccccc1)C(=O)c1ccccc1S2=O (stereo not given)	1	0.96
Cc1cc(N2CCCCC2)nc2ccc(NC(=O)CC3CCCCC3)cc12	1.1	1.1
CCCC(=O)NCc1nc2ccccc2n1CCC	1.1	0.6
O=C1CSC(c2cccnc2)N1c1cccc(Cl)c1 (stereo not given)	0.98	-0.57
O=C(Nc1cc(C(F)(F)F)cc(C(F)(F)F)c1)c1cnc2ccccn2c1=O	1.1	1.7
Cc1ccc(NC(=O)[C@H](Cc2ccccc2)N2Cc3ccccc3C2=O)cc1	1	1
O=C(Nc1ccccc1)N1CCN(c2ccc(C(F)(F)F)cn2)CC1	1.1	3.2
Cc1ccc(-n2c3c(cc(C(=O)NCc4ccccc4)c2=O)C(=O)CC(C)(C)C3)cc1	1.1	0.73
CC(C)CN(CC(C)C)c1nnc(NC(=O)Nc2ccccc2Cl)s1	0.69	-1.2
O=C(CCl)Nc1ccc(-c2nc3ccc(NC(=O)CCl)cc3o2)cc1	0.84	-2.2
O=C(NC1CCCCCCC1)C1c2ccccc2C(=O)N1CCCN1CCCCC1 (stereo not given)	0.53	-16
CCc1ccc(NC(=O)C2CC(c3cccc(OC)c3)=NO2)cc1 (stereo not given)	1.1	0.86
Cc1cc(N2CCC(C(=O)Nc3nccs3)CC2)n2nc(C)c(-c3ccc(Cl)cc3)c2n1	1.1	3.5
COc1ccc2cc(CCNC(=O)Cc3ccccc3)c(=O)[nH]c2c1	1	0.59
COc1ccc(Br)cc1C1Nc2ccc3ncccc3c2C2=C1C(=O)CCC2 (stereo not given)	0.85	-1.7
Cc1cc(Oc2ccccc2)nc(Oc2ccc(=O)[nH]n2)n1	0.91	-1.1
CCCCOc1ccc(-c2nc3c(C(=O)OC)c[nH]n3c2NC2CCCCCC2)cc1	0.21*	-16*
COc1ccc(Cl)cc1NC(=O)c1c(NCc2cccnc2)sc2c1CCC(C)C2 (stereo not given)	0.7	-4.2
CCc1ccccc1NC(=O)C1CCCN(S(=O)(=O)c2c(C)noc2C)C1 (stereo not given)	0.84	-1.3
Oc1ccc(Nc2nc3nonc3nc2Nc2ccccc2)cc1	0.85	-2.4
Cc1ccccc1-c1nc(CS(=O)(=O)CC(=O)NC(C)c2ccccc2)c(C)o1 (stereo not given)	1	0.38
COC(=O)CNc1c(-c2c[nH]c3ccccc23)nc2ccc(Br)cn12	0.8	-3.1
COc1ccc(-c2c(C)nn3c(N4CCCCCC4)cc(C)nc23)cc1OC	1.1	0.15
CC(NC(=O)c1ccc2c(c1)OCO2)C(c1cccs1)N1CCN(c2ccccc2F)CC1 (stereo not given)	0.92	-0.84
Cc1cc(C)nc(Nc2nc(C)c3ccccc3n2)n1	1.1	0.77
CCCCCCNC(=O)C1CC(=O)N(c2ccc(C)c(Cl)c2)C1 (stereo not given)	1	0.014
O=C(Nc1ccccc1C(=O)Nc1ccc(F)cc1)c1cccc(S(=O)(=O)N2CCCCC2)c1	0.81	-3
Cc1ccc(Cl)cc1N1CCN(CCNC(=O)CC2Oc3ccccc3NC2=O)CC1 (stereo not given)	1.3	1.6
COc1cccc(-c2cc(C(=O)NCCCn3ccnc3)c3ccccc3n2)c1	0.94	-0.58
COc1ccc(-c2cc(CCCC(=O)NCCc3ccccc3)no2)cc1	0.91	-1.8
O=C(CN1N=C(c2ccccc2)CCC1=O)NCCCN1CCCC1	0.98	-0.28
CCOc1ccc(N(CC)C(=O)Cc2c(C(=O)O)n(C)c3ccccc23)cc1	1	0.14
Cc1c(NC(=O)C(c2ccccc2)c2ccccc2)cccc1-c1nc2ncccc2o1	0.87	-1.1
CCn1cc(C(=O)N2CCN(c3ccccn3)CC2)c2cc(OC)c(OC)cc2c1=O	0.97	-0.45

Other results:
Structure	CBX7 AlphaScr	CBX7 AlphaScr z-score
CN(Cc1ccccc1)C(C(=O)NC1CCCCC1)c1ccccc1 (stereo not given)	0.97	-0.82
CCOc1ccc(NC(=O)C2CC(=O)N(c3ccc(Br)cc3)C2)cc1 (stereo not given)	0.95	-1.2
CC1(C)Cc2c(cnn2-c2ccccc2)C(=O)N(Cc2ccccc2)C1=O	1	-0.084
COc1ccccc1CNC(=O)c1ccc2c(c1)N(Cc1ccccc1Cl)C(=O)CS2	0.99	-0.52

Bioassay records: PubChem, several laboratories

These rows are one share of the data; the hit share may differ from the screen's.
